High-throughput results from PubChem BioAssay.
Six1-Eya2 inh – inhibitors of human Six1/Eya2 interaction; actives 0.56% (n = 360,000); activity change, % (concentration not given with the values); Q15475+O00167; AlphaScreen GST-Six1/His-Eya2 binding, biochemical; stronger effect = lower value; control for the full effect not named in the record; in the data active = activity change below about -65%; inconclusive = about -30% to -65%; inactive = above about -30%; further: on the % scale 0 is the no-effect control and ±100 the full control effect
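Compounds are tested against tagged Six1 and Eya2 proteins bridged by glutathione donor and nickel acceptor beads; after a one-hour incubation at 37 °C without light, AlphaScreen emission is recorded.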
D2 ag – human D2 receptor agonism in beta-arrestin assay. P14416. AID 624465. actives 0.084% (n = 360,000). activation, % (test concentration not listed). DiscoveRx PathHunter D2 beta-arrestin, luminescence, 90 min; 100% = 57 uM dopamine signal; in the data active = activation above about 40%; inconclusive = about 15% to 40%; inactive = below about 15%; further: compound concentration not given in the record; the text of the record calls up to 30% inactive
Target sequence (P14416 whole entry, looked up): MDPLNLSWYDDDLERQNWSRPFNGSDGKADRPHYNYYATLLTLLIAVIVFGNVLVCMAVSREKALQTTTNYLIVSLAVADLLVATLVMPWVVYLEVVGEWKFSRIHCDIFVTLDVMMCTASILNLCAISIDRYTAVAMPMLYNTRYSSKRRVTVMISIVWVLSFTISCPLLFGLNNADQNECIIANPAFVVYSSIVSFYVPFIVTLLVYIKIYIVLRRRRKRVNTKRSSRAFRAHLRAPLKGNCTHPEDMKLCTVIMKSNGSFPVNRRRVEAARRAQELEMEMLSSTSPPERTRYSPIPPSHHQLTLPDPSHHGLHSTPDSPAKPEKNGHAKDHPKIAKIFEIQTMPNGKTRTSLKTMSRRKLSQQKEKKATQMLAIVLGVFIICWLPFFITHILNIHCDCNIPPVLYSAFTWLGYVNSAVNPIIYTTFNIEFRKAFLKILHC
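DiscoveRx PathHunter D2 beta-arrestin cells (2,100/well) attached overnight, then compound-stimulated 90 min at 37 C in HBSS/10 mM HEPES/0.1% Tween-20 buffer; beta-galactosidase complementation read by luminescence after 1 h at ambient temperature. Dopamine 57 uM final (EC100) as control.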
CtBP-E1A blk – blocks the CtBP interaction with E1A; activity change, % (concentration not given with the values); AlphaScreen GST-E1A/His-CtBP binding, 1536-well; stronger effect = lower value; control for the full effect not named in the record; AID 651724; actives 0.49% (n = 340,000); in the data active means activity change below about -65%; inconclusive means about -30% to -65%; inactive means above about -30%; further: on the % scale 0 is the no-effect control and ±100 the full control effect
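Homogeneous bead-based format: GST-tagged E1A captured on glutathione donor beads, His-tagged CtBP on nickel acceptor beads; compounds precede bead addition by 2 h at 37 °C.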
TRPML1 inh – blocks the human TRPML1 channel. TRPML1-inducible cells, Ca2+ dye fluorescence, FDSS; stronger effect = lower value; inhibition of EC80 agonist-evoked calcium signal. AID 624415. Q9GZU1. activity change, negative = inhibition, % (concentration not given with the values). actives 0.02% (n = 390,000); in the data active means activity change below about -50%; inconclusive means about -30% to -50%; inactive means above about -30%;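 further: stimulus is agonist 54-4 at its EC80 concentration; on the % scale 0 is the no-effect control and ±100 the full control effect; compound concentration not given in the record; the text of the record puts the active cut at -80%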
Target sequence (Q9GZU1 whole entry, looked up): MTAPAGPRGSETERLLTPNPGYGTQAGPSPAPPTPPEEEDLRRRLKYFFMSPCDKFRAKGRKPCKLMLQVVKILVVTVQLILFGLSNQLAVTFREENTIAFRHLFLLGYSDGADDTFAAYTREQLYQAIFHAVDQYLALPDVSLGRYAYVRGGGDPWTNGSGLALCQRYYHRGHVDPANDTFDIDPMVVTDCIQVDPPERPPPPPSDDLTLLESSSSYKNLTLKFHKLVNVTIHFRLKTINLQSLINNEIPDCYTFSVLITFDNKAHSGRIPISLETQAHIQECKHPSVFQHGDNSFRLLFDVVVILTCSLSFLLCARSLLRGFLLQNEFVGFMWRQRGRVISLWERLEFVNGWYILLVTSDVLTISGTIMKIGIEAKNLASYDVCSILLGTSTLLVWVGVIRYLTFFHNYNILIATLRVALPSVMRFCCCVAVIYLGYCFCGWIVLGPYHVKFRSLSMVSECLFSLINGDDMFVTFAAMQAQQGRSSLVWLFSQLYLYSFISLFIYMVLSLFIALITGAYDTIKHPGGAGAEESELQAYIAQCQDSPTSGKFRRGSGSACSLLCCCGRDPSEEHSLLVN
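Tet-induced TRPML1-DL cells loaded with Ca8 no-wash calcium dye were read kinetically on FDSS. Compound addition was followed by EC80 agonist 54-4 (4 uM final); inhibition was read over 110 s.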
TRPML1 ag – human mucolipin-1 channel agonism; AID 624414; TRPML1-expressing cells, Ca2+ dye fluorescence, FDSS; host cell line not named in the record; reference of the full effect not given here; Q9GZU1; activation, % (concentration not given with the values); actives 0.12% (n = 410,000); in the data active = activation above about 50%; inconclusive = about 30% to 50%; inactive = below about 30%; further: 0% is about no effect; the text of the record puts the active cut at 80%
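Cells: TRPML1-DL, 1X Tet inducer, ~16 h at 37 degrees C/5% CO2. Dye: ABD Ca8 no-wash + quencher, 45-90 min RT. Read: 10 s baseline, compound add, 110 s agonist phase; 54-4 EC80 (4uM final), 110 s antagonist phase.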
PINK1 expr mod – modulators of PINK1 expression; AID 624263; actives 0.2% (n = 410,000); PINK1 immunofluorescence, high-content cytometry, 24 h; Potency, µM (top dose mostly 76.6 µM), inactives show at the top dose activation (PINK1 increase), actives largely listed as activators; active = well fitted activation curve with a large enough effect; inconclusive = small, poorly fitted or top-dose-only effect; inactive = flat fitted curve, though single readings scatter; cell line not stated here;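 further: potency means the concentration at half of the fitted maximal effect; % of control where 0% means no effect; nearly all actives have a fitted effect of over 65% in size; a mitochondrial uncoupler was the plate control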
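A stable cell line was treated with compounds at 5 concentrations for 24 hours, with CCCP as control. PINK1 levels and mitochondrial localization were measured by immunofluorescence with mitochondrial, cell and nuclear markers after fixation, read by laser-scanning cytometry.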
* hit, by the source's call; ? = inconclusive; nt = not tested or not shown; & = joins results of further samples; [ ] = remark or other dose.

Values in the order – Six1-Eya2 inh, D2 ag, CtBP-E1A blk, TRPML1 inh, TRPML1 ag, PINK1 expr mod
CCCCOc1ccc(C(=O)Nc2cc(C)c(OCC(=O)N3CCOCC3)c(C)c2)cc1
  0.0, -1.2, 2.8, 66.1, -0.6, -0.5%
CCC1Oc2ccccc2N(CC(=O)NCCN2CCCC2)C1=O (centres undefined)
  0.1, -8.8, -3.2, 2.9, -1.7, -0.7%
CN1CCN(S(=O)(=O)c2ccc(NC(=O)c3cccc(F)c3)cc2)CC1
  -26.4, 11.7, -4.0, 9.4, 0.0, -1.7%
CC(C)C[C@H](NC(=O)NCCC1=CCCCC1)C(=O)O
  5.2, -1.5, 9.5, nt, nt, 2.0%
CCN(CC)CCCN1C(=O)C(=O)/C(=C(/O)c2ccc3c(c2)OCCO3)C1c1ccco1 (centres undefined)
  -1.6, -0.2, 11.8, 1.3, -0.6, 15.6%[38.3 µM]
CCCCC(=O)Nc1cccc(-c2nn3c(C)nnc3s2)c1
  -0.9, 0.8, -6.2, 15.8, 1.3, -2.0%[38.3 µM]
O=C(Nc1cccc(S(=O)(=O)N2CCCCC2)c1)[C@@H]1CCCN1S(=O)(=O)c1ccccc1C(F)(F)F
  8.7, 6.0, 14.9, 6.8, 2.3, 2.5%
Cc1nc2cc(NCc3ccccc3O)ccc2n1Cc1ccccc1
  -13.9, 4.1, 0.0, 9.3, 0.6, 0.1%
COc1ccc(CCNC(=O)CSc2nc(O)cc(=O)[nH]2)cc1OC
  0.8, 1.9, 0.5, -17.5, 0.8, -0.4%
O=C(O)c1ccccc1-c1c2cc(I)c(=O)c(I)c-2oc2c(I)c(O)c(I)cc12
  ?, -7.8, ?, -89.8*, 177.5*, 1.0%&-0.3%
O=C(O)Cc1sc(N/N=C\c2ccncc2)nc1-c1ccccc1
  -6.6, ?, -11.2, nt, nt, 4.8%
COC(=O)c1ccc(Cl)c(NC(=O)C2CCN(S(=O)(=O)Cc3ccccc3)CC2)c1
  nt, nt, nt, -22.3, -0.1, 0.4%
O=C(Nc1ccccc1C(=O)N1CCN(c2cccc(Cl)c2)CC1)C1=CSCCO1
  -0.8, 2.5, -8.4, 14.3, 1.8, 0.5%
CCCN1CCC(NC(=O)CCc2nnc(Cc3cc(OC)ccc3OC)o2)CC1
  -1.6, 0.6, 9.6, -5.6, -0.1, 1.1%
CC(Oc1cc2oc(=O)c3c(c2cc1Cl)CCC3)C(=O)NCc1ccncc1 (centres undefined)
  3.6, 0.4, 0.4, 7.9, -0.2, -0.6%
CCOC(=O)CCC(=O)N1CCOCCOCCOCC1
  4.4, 2.7, 8.5, 2.6, 1.6, 1.0%[38.3 µM]
C(=N/Nc1nc(-c2ccccc2)cc(-c2ccccc2)n1)/c1cccnc1
  -10.9, -1.9, -3.7, 19.3, -0.7, -3.7%
COCCN1CC(CNC(=O)c2cc(COc3ccc(C)c(C)c3)on2)CC1=O (centres undefined)
  3.9, -3.8, 0.8, 20.6, 1.0, 1.5%
O=C(Cn1c(SCc2ccccc2)nc2ccccc21)N1CCOCC1
  6.7, -0.6, 5.6, 4.1, 0.5, -2.7%
Cc1ccsc1C(=O)N1CCN(c2ccccn2)CC1
  8.8, -0.6, nt, 14.5, -0.2, 0.5%
CNc1cc(-c2ccc(C(=O)OC)cc2)ncn1
  -18.1, -1.9, -11.5, nt, -0.1, 3.2%
COc1ccc2c(c1)CC/C2=N\OC(=O)c1ccccc1C
  3.5, 5.1, 16.9, 32.2, 4.7, 2.8%
CC1CCN(C(=O)Cn2cc(C#N)c3ccccc32)CC1
  8.9, -3.9, -4.3, -2.2, -0.4, 0.6%
COc1ccc(CN2CCc3c(c(=O)n4ncc(C(=O)N5CCN(c6ccccc6OC)CC5)c4n3C)C2)cc1
  nt, nt, nt, -18.3, 1.3, 0.0%
CCOC(=O)Cn1ccc2cc(S(=O)(=O)N3CCCC3)ccc21
  -2.4, -0.5, 2.5, -16.4, -0.1, 1.7%
Cc1nn2cnc3sc4c(c3c2nc1=O)CCCC4
  -2.1, -2.5, -2.5, 10.8, -0.9, 1.9%
CCCCCCCCN1C(=O)[C@H](CC(=O)NCCC(C)C)C[C@@]2(C(=O)OCC)CCCC=C12
  12.8, nt, 8.5, nt, -0.5, 24.3%
O=C(CS(=O)c1ccc(F)cc1)N1CCOCC1 (centres undefined)
  0.4, -0.3, nt, -1.4, 3.1, 0.9%
CC(=O)c1c(C)nc2cc(Cl)ccc2c1N
  15.7, -5.3, 20.7, -14.2, -0.4, 3.0%
CC1SC2(NC1=O)C1CC3CC(C1)CC2C3 (centres undefined)
  8.0, 3.3, 0.0, -0.7, 0.9, 0.0%

Some entries already given, limited to D2 ag, CtBP-E1A blk and Six1-Eya2 inh.
Structure | D2 ag | CtBP-E1A blk | Six1-Eya2 inh
CN1CCN(S(=O)(=O)c2ccc(NC(=O)c3cccc(F)c3)cc2)CC1 | 11.7 | -4.0 | -26.4
CC(C)C[C@H](NC(=O)NCCC1=CCCCC1)C(=O)O | -1.5 | 9.5 | 5.2
CCN(CC)CCCN1C(=O)C(=O)/C(=C(/O)c2ccc3c(c2)OCCO3)C1c1ccco1 (centres undefined) | -0.2 | 11.8 | -1.6

Later entries
Values in the order – Six1-Eya2 inh, D2 ag, CtBP-E1A blk, TRPML1 inh, TRPML1 ag, PINK1 expr mod
COc1nc(-c2ccc(C)cc2)ccc1-c1noc(-c2ccccc2Br)n1
  nt, nt, nt, -8.3, -0.6, -2.3%
Oc1ccccc1CN1CCCC(N2CCc3ccccc3C2)C1 (centres undefined)
  0.9, 4.5, -0.2, -6.2, -0.6, 1.2%
C/C(=N\NC(=O)c1nnn(-c2nonc2N)c1CSc1ccc(C)cc1)c1cccnc1
  9.2, 3.8, -1.3, -2.3, 0.8, 1.0%
O=C(COc1cccc2c1CCN(Cc1ccc(Cl)cc1)C2=O)N1CCOCC1
  -1.5, -0.7, -1.9, -5.2, -0.3, 1.5%
CCc1cccc(CC)c1C(OC(C)=O)c1cccnc1 (centres undefined)
  5.4, -1.6, 1.0, 16.7, 3.0, 0.8%
CC(=O)N1CCN(Cc2nc3cc(NC(=O)COc4cccc(C)c4)ccc3n2C)CC1
  1.3, -4.4, 0.3, 3.0, 0.9, -0.5%
COc1ccc(C(=O)n2nc(C)c(Br)c2C)cc1
  7.9, -1.9, 8.3, -6.3, 0.8, 6.1%
COc1ccc(C(=O)NC2CCCc3c2cnn3-c2ccc(C)c(C)c2)c(OC)c1OC (centres undefined)
  -7.3, -0.2, -8.5, 36.7, -0.4, 1.0%
O=C(Nc1ccccc1F)c1cc(S(=O)(=O)N2CCOCC2)cs1
  4.4, -1.9, 2.4, 0.9, 1.3, -2.3%
CC(NC(=O)C1CCN(C(=O)Nc2ccccc2)CC1)c1ccc(Cl)cc1 (centres undefined)
  2.5, -3.4, nt, 21.6, -0.1, -0.7%
O=C(COc1ccccc1)NC(NC(=S)Nc1ccccc1C(=O)O)C(Cl)(Cl)Cl (centres undefined)
  -17.5, -1.6, -27.7, 13.5, 1.1, -3.2%
Cc1nnc(SCC(=O)N(CC(C)C)C2CCS(=O)(=O)C2)n1N (centres undefined)
  4.6, 5.8, -3.4, 0.3, -0.2, 1.3%
O=C(CCCN1C(=O)NC2(CCCC2)C1=O)Nc1ccc(Cl)c(S(=O)(=O)N2CCOCC2)c1
  -0.1, 2.0, -5.0, 9.5, 1.3, 4.2%
Cc1cccc(C2CC(c3ccccc3)Nc3nc(N)nn32)c1 (centres undefined)
  6.9, 0.6, 1.3, -11.6, 3.8, 1.1%
O=C(COC(=O)c1cccnc1)Nc1cccc(Cl)c1
  2.7, -2.1, -2.8, 18.8, 1.7, -0.7%
CCN(CC)c1nc2ccccc2nc1C(C#N)C(=O)NCCc1ccccc1 (centres undefined)
  8.1, -0.3, -0.2, 14.9, 1.1, 11.8%
CN1CCN(C(=O)C23CCC(C)(c4nc5ccccc5nc42)C3(C)C)CC1 (centres undefined)
  4.9, -1.6, -0.7, -8.5, 0.2, nt
COC(=O)/C=C/c1cccc([C@H]2[C@@H]3C=CC[C@@H](C)[C@@H]3C(=O)N2Cc2ccccc2)c1
  -8.1, 1.5, -15.1, 45.4, -0.7, ?
Nc1cc(C(=O)c2cccs2)ccc1Cl
  -1.7, -2.8, -2.1, -0.5, 1.6, 11.8%[38.3 µM]
Cn1c(N/N=C/c2cc3ccccc3nc2Cl)nc2ccccc21
  -0.4, -2.3, -2.4, 7.5, 2.4, 35.5µM*
CC(NC(=O)Nc1ccc(F)cc1F)c1ccc2c(c1)OCO2 (centres undefined)
  2.9, -0.5, 6.6, -14.8, 1.1, 0.2%
CCOc1ccccc1NC(=O)CSc1nnnn1-c1ccccc1
  3.3, 0.4, 6.0, -1.3, 0.5, 0.8%
COc1ccc(/C=C/C(=O)O)cc1S(=O)(=O)Nc1ccc2c(c1)OCO2
  9.3, -7.7, -3.7, nt, nt, 0.6%
Cc1ccc(-n2nc3cc(C)c(NC(=O)COc4ccccc4)cc3n2)cc1
  nt, nt, nt, -1.1, -0.1, 1.4%
Cc1ccc(NC(=S)N2CCN(S(C)(=O)=O)CC2)cc1Cl
  -3.9, 1.0, 6.5, -1.9, 0.0, 10.2%
COc1ccc(-n2c(SCC(=O)Nc3cccc(C(=O)O)c3)nnc2-c2ccco2)cc1
  2.9, -3.7, 18.5, 45.1, -1.2, 1.1%
O=C(NNC(=O)c1cccc2ccccc12)c1cccc(Cl)c1
  -0.3, -0.8, 2.0, -4.3, 0.3, 2.0%
O=C(Cn1c(=O)n(Cc2ccco2)c(=O)c2oc3ccccc3c21)Nc1ccc(F)c(Cl)c1
  nt, nt, nt, -24.3, 0.9, 5.8%
CC(C)CC(=O)Nc1nnc(CCc2ccccc2)s1
  -0.5, -0.5, nt, -13.4, -0.5, 0.0%
CCN(CC(=O)NCc1cccs1)CC(=O)Nc1ccc(C(N)=O)cc1
  3.5, -4.4, -6.7, 12.1, 0.3, -1.2%

Carrying on.
Values in the order – Six1-Eya2 inh, D2 ag, CtBP-E1A blk, TRPML1 inh, TRPML1 ag, PINK1 expr mod
O=C(Cn1c(-c2ccccc2)c[n+]2ccsc12)c1ccc([N+](=O)[O-])cc1
  -1.8, -3.5, 2.7, -1.0, 2.5, ?
CCCCn1c(N)c(N(CC(C)C)C(=O)C2CC(=O)N(c3ccc(CC)cc3)C2)c(=O)[nH]c1=O (centres undefined)
  6.0, 0.4, 3.5, 34.3, 0.3, -1.0%
O=C(Nc1ccc(NC(=O)C2CCCCC2)nc1)c1ccco1
  -0.3, -3.1, -3.1, 15.1, 0.4, 2.7%
COc1ccccc1NC(=O)Cc1nnc(SCC(=O)c2ccccc2)n1C
  -4.6, 0.1, -11.7, -11.1, -0.2, 1.7%
COc1ccc(S(=O)(=O)N2CCCC(C(=O)NC3CC3)C2)cc1OC (centres undefined)
  -3.6, -2.2, 7.4, -7.8, -0.6, 0.9%
CSc1nc2nccc(-c3ccc(Cl)cc3)n2n1
  -1.5, 0.8, 2.0, 16.1, 0.1, 2.0%
O=C(OCc1cc2ccccc2[nH]c1=O)c1ccco1
  -0.3, -2.3, 7.5, 11.3, -0.5, nt
COc1cccc(C(c2c(C)[nH]n(-c3ccccc3)c2=O)c2c(C)[nH]n(-c3ccccc3)c2=O)c1OC
  -4.6, -4.0, -21.4, 0.2, 0.3, 9.6%
